Bfl-1 A1 inh: inhibitors of the anti-apoptotic protein A1, read as caspase activation | MEF A1-2A-BIM cells, Caspase-Glo 3/7 luminescence, 3 h; percent of clofoctol response, vehicle zero | caspase activation, % (no concentration beside the values) | hit rate 0.066% among 330,000 | AID 2462;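 active means over half of replicate activation scores above 10%, or exactly half above 10 with the replicate mean above 10; inconclusive means replicate mean below 10 yet half the replicates above 10; inactive means over half of replicates below 10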;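 further: wells of about 30 µL received 50 nL stock; many hits fall short of the cut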
Ecoli growth: inhibitors of Escherichia coli growth; OD600, 23 h; stronger effect = lower value; OD600 absorbance (no concentration beside the values); hit rate 0.21% among 330,000; AID 1053175;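 active means OD600 absorbance below the run mean of sample wells minus 3.6 SD, in any replicate, cut at about 0.56 in these data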;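 further: stock transfer was 300 nL into about 60 µL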
HNF4A DNA FP: change in binding of human HNF4 alpha to DNA; HNF4a-FITC DNA binding, fluorescence polarization, 1 h; activity change, % at 10 µM; hit rate 0.3% among 360,000; AID 1224865; in the data active means activity change above about 30%, passing the limit was not always enough;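 further: controls were the assay level and a saturating level of protein; the project sought stronger binding though the title names inhibitors; some compounds called inactive have numbers as strong as hits; positive values seem to mean higher polarization but the record does not say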
Target sequence (P41235 whole entry, looked up): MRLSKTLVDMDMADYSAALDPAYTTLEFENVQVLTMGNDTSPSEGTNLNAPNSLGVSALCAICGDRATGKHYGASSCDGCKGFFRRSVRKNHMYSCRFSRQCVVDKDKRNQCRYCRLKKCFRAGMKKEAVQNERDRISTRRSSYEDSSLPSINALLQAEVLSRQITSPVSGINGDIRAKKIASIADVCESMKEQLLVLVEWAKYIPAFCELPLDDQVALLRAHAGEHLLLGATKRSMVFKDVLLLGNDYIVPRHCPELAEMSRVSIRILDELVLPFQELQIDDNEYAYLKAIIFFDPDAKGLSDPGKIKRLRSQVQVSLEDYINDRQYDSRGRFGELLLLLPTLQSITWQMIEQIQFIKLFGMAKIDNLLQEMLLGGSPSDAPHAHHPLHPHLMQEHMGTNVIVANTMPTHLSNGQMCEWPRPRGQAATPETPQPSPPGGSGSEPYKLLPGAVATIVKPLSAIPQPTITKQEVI
B2AR ag: human beta-2 adrenergic receptor agonism by FAP; P07550; Am2.2-beta2AR cells, FAP receptor internalization, flow cytometry; reference of the scale not given here; response, % (no concentration beside the values); hit rate 0.43% among 340,000; AID 504454;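 active means response above a set limit, near 3 SD of response in nonfluorescent compounds, cut at about 42% in these data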;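 further: stock transfer was 100 nL into about 11 µL; a reference agonist was the positive control; negative values mostly stem from fluorescent compounds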
LANA-H2A inh: blocks KSHV LANA binding to histone H2A/H2B; Q9QR71; cell-free LANA-H2A/H2B peptide, fluorescence polarization; inhibition, % (concentration not given with the values); hit rate 0.6% among 320,000; in the data active means inhibition mostly above about 10%, no sharp cut-off; inactive means mostly below about 6.7%;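 further: stock transfer was 7.5 nL into about 10 µL; 0% = median of vehicle wells and 100% = median of positive control wells; one replicate is shown; the record names a cut of 25% in any replicate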
Vif TR-FRET: HIV-1 Vif–A3G interaction blockers – biochemical, TR-FRET, GST-Vif 1-94, biotin-A3G peptide, dose response retest, primary screen (AID 1117319) | TR-FRET GST-Vif / biotin-A3G peptide binding; higher % means a stronger effect; test concentration not given here; strong numbers were not always called active | inhibition, %; hits with a dose series show IC50 in µM | hit rate 0.57% among 260,000;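 active means above the screen mean plus three standard deviations and confirmed in dose response; inconclusive means results disagree or hit not tested in dose response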;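 further: Vif residues 1-94 fused to GST binding biotinylated APOBEC3G peptide 110-148; 0% = full assay without inhibitor and 100% = GST in place of GST-Vif; retest series ran down from 100 µM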
UCH37 inh: blocks the human deubiquitinase UCH37 | purified proteasome/UCH37, Ub-AMC cleavage fluorescence | Q9Y5K5 | hit rate 0.33% among 330,000 | AID 588478 | inhibition, % (concentration not given with the values);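 active means mean of two replicates above 20%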;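 further: 0% = compound-free wells with enzyme and 100% = wells lacking proteasome; stock transfer was 100 nL into about 20 µL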
Target sequence (Q9Y5K5 whole entry, looked up): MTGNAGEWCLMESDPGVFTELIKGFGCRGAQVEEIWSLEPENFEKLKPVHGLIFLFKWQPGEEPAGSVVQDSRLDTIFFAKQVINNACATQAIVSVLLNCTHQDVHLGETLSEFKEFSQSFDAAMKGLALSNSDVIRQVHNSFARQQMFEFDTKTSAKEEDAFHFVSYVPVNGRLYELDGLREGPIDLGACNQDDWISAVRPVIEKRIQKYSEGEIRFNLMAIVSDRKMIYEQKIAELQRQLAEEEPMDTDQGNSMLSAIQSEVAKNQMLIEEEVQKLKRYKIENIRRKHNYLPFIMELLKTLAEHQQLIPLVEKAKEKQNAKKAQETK
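Material: Human UCH37 enzyme supplied as purified proteasome complex | Schedule: 30 min compound-proteasome preincubation then 25 min substrate reaction, room temperature | Detection: AMC fluorescence from Ub-AMC cleavage, excitation 355 nm, emission 460 nm | Benchmarks: Wells without proteasome as full block, compound-free enzyme plus substrate as uninhibited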
Starred values were filed as active, the others as inactive; ? = inconclusive; · = no result given; & = joins results of further samples. Hits appear at their usual frequency, and some 2.1% of all compounds hit somewhere here.

SMILES	Bfl-1 A1 inh	Ecoli growth	HNF4A DNA FP	B2AR ag	LANA-H2A inh	Vif TR-FRET	UCH37 inh
COc1ccc(N2CC(C(=O)NCCc3ccc(Cl)cc3)CC2=O)cc1 (stereo not given)	0.8	0.65	0.8	-2	-0.4	·	4.3
O=C1CC2(CCN(C(=O)c3ccc(F)c(F)c3)CC2)Oc2ccccc21	0.7	0.71	-2.0	6	-1.6	1%	-19
CN1CCN(C(=O)c2cc(Cl)cc(Cl)c2NC(=O)c2ccco2)CC1	0.0	0.66	-1.2	-5	-0.9	·	-0.8
CCOC(=O)c1c(NC(=O)/C=C/C(=O)O)sc(C)c1-c1ccc(C)c(C)c1	0.2	0.66	-7.2	25	6.1	·	7.9
COCCN(CCOC)C(=S)Nc1ccccc1Cl	-0.1	0.66	-2.0	11	-1.1	8%	5.9
Cc1nc2c(C)cccc2c(SC(=N)N)c1CC=C(Cl)Cl	0.6	0.62	-0.8	2	-0.5	·	1.4
CC(O)CNc1nc2c(c(=O)n(Cc3ccc(Cl)cc3)c(=O)n2C)n1C (stereo not given)	0.7	0.67	2.5	8	3.4	6%	1.6
Cc1cccc(NC(=O)C2CCCN(C(=O)Nc3ccc(F)cc3)C2)c1 (stereo not given)	-0.2	·	-3.9	1	5.3	·	·
CCn1cc(C(=O)O)c(=O)c2cc(S(=O)(=O)N(C)C)ccc21	0.2	0.68	-0.2	9	2.1	20%&-1%	5.9
CCOC(=O)c1cnc(-c2ccccc2O)nc1Cl	0.6	0.66	1.6	14	-0.7	8%	8.5
O=C(CCSCCC(=O)N1CCCC1)N1CCCC1	0.1	0.67	4.4	1	-0.1	-3%	1.0
Cc1c(Cl)cccc1NC(=S)N(Cc1ccco1)C(C)c1ccccn1 (stereo not given)	0.0	0.67	-1.7	1	-5.5	·	2.8
COCCN(C(=O)CCC(=O)Nc1ccccn1)C(C(=O)NC(C)(C)C)c1ccc(OC)cc1 (stereo not given)	0.7	0.64	-0.6	-4	3.0	·	-0.5
OCCC1CN(Cc2c(F)cccc2Cl)CCN1C1CCCC1 (stereo not given)	0.0	0.69	4.7	-5	4.3	3%	2.1
O=C(CCCN1C(=O)CCC1=O)Nc1ccc2c(c1)OCCO2	1.4	0.72	1.7	5	-5.1	6%	2.0
N/C(=N\OC(=O)c1ccc(Cl)c([N+](=O)[O-])c1)c1ccccn1	-2.4	·	-0.1	-4	-1.8	·	·
CCc1ccc(-n2c(C)n[nH]c2=S)cc1	0.1	0.66	7.3	0	-0.7	-17%	0.5
CC(C(=O)N1CCOCC1)N1C(=O)c2ccccc2C1=O (stereo not given)	0.2	0.76	2.2	0	-1.0	3%	0.0
COc1ccc(OCC(=O)Nc2ccc3c(c2)nc2n3CCSC2)cc1	-0.3	0.74	2.5	-13	-4.9	-5%	0.5
COc1ccc(/C=C2\SC(=O)N(CC(=O)NN3CCN(C)CC3)C2=O)cc1OC	0.7	0.69	-0.2	-3	2.5	8%	9.1
O=C(COc1ccccc1)NNc1nc2c(F)cccc2s1	-0.1	0.72	-1.7	-5	-5.5	·	0.6
CCc1nnc(NC(=O)COc2ccc(N(C)S(=O)(=O)c3ccc(C)cc3)cc2)s1	·	0.71	0.7	12	·	1%	5.0
O=C(COc1ccc2c3c(c(=O)oc2c1)CCCC3)NCCCN1CCCC1=O	-0.7	0.67	5.3	-11	-1.9	-2%	-76
O=S(=O)(CCOc1ccccc1)c1nc2ccccc2[nH]1	0.8	0.72	4.7	-1	5.1	-6%	3.3
CNC(=O)c1nnc(Cc2ccc(Cl)cc2)o1	-0.1	0.67	-4.1	13	-0.8	-3%	3.7

(next part)
SMILES	Bfl-1 A1 inh	Ecoli growth	HNF4A DNA FP	B2AR ag	LANA-H2A inh	Vif TR-FRET	UCH37 inh
COCC(=O)Nc1ccc(OCc2ccccc2)cc1	-5.0	0.68	2.5	13	3.1	-3%	0.5
CC1CCCN(Cc2c(O)ccc3c(=O)c(-c4nc5ccccc5s4)c(N)oc23)C1 (stereo not given)	-0.9	0.64	1.5	22	0.2	2%	-131
C=CCc1c(C)nc(N2CCSCC2)[nH]c1=O	-0.1	0.67	-2.2	3	-2.2	-2%	3.7
FC(F)Sc1nc2ccccc2[nH]1	1.3	0.65	-1.3	7	-2.3	0%	3.6
COc1ccc(CC(=O)N2CCN(C(=O)c3ccco3)CC2)cc1	0.5	0.67	2.6	3	-2.9	-9%	1.5
CCOC(=O)C1CCCN(c2c(NCCc3cccc(C)c3)c(=O)c2=O)C1 (stereo not given)	0.8	0.65	2.9	8	9.1	?	5.4
COc1cc(CNCc2ccc3c(c2)OCO3)c([N+](=O)[O-])cc1OC	-0.8	0.7	-4.4	-4	1.5	-3%	5.2
CCN1CCN(Cc2ccc(OC)c(OCc3ccccc3)c2)CC1	0.7	0.72	9.5	4	1.4	1%	3.3
CCCCCCCCCOC(=O)C1N2C(=O)[C@@H](NC(=O)COc3ccccc3)[C@H]2SC1(C)C (stereo not given in full)	-0.6	·	-3.4	-11	0.1	·	2.2
CCOC(=O)CNS(=O)(=O)c1cc(-c2nn(C)c(=O)c3ccccc23)ccc1C	0.8	0.73	6.0	27	1.3	6%	1.1
COc1ccc2c(c1)-c1nc(/N=C/c3ccc(O)cc3)sc1CC2	-2.0	·	0.8	2	2.7	·	·
O=C(NC1CCCCC1)c1cc(-c2ccc(Cl)cc2)on1	-0.2	0.72	3.0	-2	2.3	·	1.1
CC1=C(C(N)=O)C(c2cccc(OCc3ccccc3)c2)n2nnnc2N1 (stereo not given)	-0.2	0.7	-1.3	-2	-0.7	1%	3.5
O=C(NCc1cccs1)C1CCCN1C(=O)Nc1ccccc1 (stereo not given)	0.0	0.67	2.9	4	1.4	4%	0.1
CCc1nnc(NC(=O)CN2CCN(Cc3ccccc3Cl)CC2)s1	0.1	0.7	0.0	-7	1.2	·	5.9
CCCCn1c(N)c(N(CC(C)C)C(=O)CSCc2ccc(Cl)c(Cl)c2)c(=O)[nH]c1=O	-0.5	0.63	-0.1	4	·	6%	0.1
Cc1cc(C(C)(C)C)oc1C(=O)O	0.1	0.62	5.6	-5	-6.2	2%	-0.8
Cc1c(-c2ccccc2)cnc2c(C)cccc12	0.5	0.65	-0.7	-3	-1.2	·	4.2
Cc1ccc(CNC(=O)CNS(=O)(=O)c2ccc3c(c2)C(C)(C)C(=O)N3C)cc1	-0.8	0.68	2.7	2	3.6	·	3.4
CCC(C)[C@H](NC(=O)OC(C)(C)C)C(=O)N/N=C/C1=Cc2ccccc2OC1 (stereo not given in full)	0.0	·	-1.6	6	2.2	-6%	·
O=C(CSc1ncnc2nc[nH]c12)c1ccc(Cl)cc1	0.7	0.68	-0.8	-20	-0.2	·	3.5
CCCNC(=O)Nc1ccc(NC(C)=O)cc1	1.1	0.71	5.7	-1	3.2	13%	0.8
Cc1ccc(CN2CCNC(=O)C2CC(=O)NCCCn2cccn2)o1 (stereo not given)	0.5	0.68	3.1	5	2.6	·	1.3
COC(=O)CSc1nc2ccccn2c(=O)c1C=O	-0.3	0.68	-1.9	-3	10	7%	4.8
CC(C)(C)OC(=O)CC12CCCCC1NC(=O)O2 (stereo not given)	1.3	0.69	-3.0	6	5.8	·	3.7

Whole records, looked up by structure. Screens in order: Bfl-1 A1 inh | Ecoli growth | HNF4A DNA FP | B2AR ag | LANA-H2A inh | Vif TR-FRET | UCH37 inh
Profile of `COc1cc(CNCc2ccc3c(c2)OCO3)c([N+](=O)[O-])cc1OC` → -0.8 | 0.7 | -4.4 | -4 | 1.5 | -3% | 5.2
Profile of `O=C(CSc1ncnc2nc[nH]c12)c1ccc(Cl)cc1` → 0.7 | 0.68 | -0.8 | -20 | -0.2 | · | 3.5
Profile of `CCOC(=O)CNS(=O)(=O)c1cc(-c2nn(C)c(=O)c3ccccc23)ccc1C` → 0.8 | 0.73 | 6.0 | 27 | 1.3 | 6% | 1.1
Profile of `O=C(NCc1cccs1)C1CCCN1C(=O)Nc1ccccc1` (stereo not given) → 0.0 | 0.67 | 2.9 | 4 | 1.4 | 4% | 0.1
Profile of `O=C(NC1CCCCC1)c1cc(-c2ccc(Cl)cc2)on1` → -0.2 | 0.72 | 3.0 | -2 | 2.3 | · | 1.1

New compounds follow.
SMILES	Bfl-1 A1 inh	Ecoli growth	HNF4A DNA FP	B2AR ag	LANA-H2A inh	Vif TR-FRET	UCH37 inh
CCN(Cc1ccccc1)Cc1nc(CCc2ccccc2)no1	0.2	0.63	1.1	-5	-3.9	-1%	3.1
COc1ccc(OCCNC(=O)C(Cc2c[nH]c3ccccc23)NC(C)=O)cc1 (stereo not given)	0.7	0.71	-0.2	4	-2.0	3%	4.0
COc1ccc(NC(=O)C2CCCN(S(=O)(=O)c3cccnc3)C2)c(OC)c1 (stereo not given)	1.2	0.71	0.3	0	-0.8	-5%	3.4
C=CCSc1nnc(-c2ccncc2)n1-c1ccc(OCC)cc1	0.6	0.65	3.1	2	1.5	-5%	3.5
O=C(Nc1cccc(F)c1)C1CCN(C(=O)N2CCOc3ccccc32)CC1	0.1	0.71	-6.1	-3	7.0	·	0.1
CCOC(=O)c1c(NC(=O)CSc2nc3c(c(=O)n(C)c(=O)n3C)n2CC)sc(C)c1C	-0.1	0.73	1.3	3	0.3	0%	-0.2
Cc1cc2c(c(C)c1Cl)C(c1ccc3c(c1)OCO3)CC(=O)O2 (stereo not given)	·	0.66	-4.7	-3	·	·	0.1
CN(C(=O)CSc1nncn1-c1ccccc1)C1CCS(=O)(=O)C1 (stereo not given)	0.2	0.62	2.9	3	0.8	-4%	1.0
COc1ccc(Cl)cc1NC(=O)C(C)OC(=O)C1=NNC(=O)CC1 (stereo not given)	1.7	0.68	-4.2	5	-0.6	-12%	1.7
Cc1nn(CC(=O)N2CCc3ccccc3C2)c(C)c1[N+](=O)[O-]	-0.4	0.64	-1.6	-16	0.6	·	0.6
C#CC1(NC(=O)N(C)C)CCCCC1	0.6	0.67	3.6	3	-5.3	6%	0.0
CCN(C/C=C/c1ccccc1OC)Cc1ccccc1	-0.7	0.67	-1.5	4	-3.1	·	1.6
Cc1cccc(C)c1NC(=O)C(NS(=O)(=O)c1cccs1)c1ccccc1 (stereo not given)	1.6	0.68	2.1	4	1.0	-14%	-0.4
CCN(C(=O)c1ccc(S(=O)(=O)N(C)C)cc1)C(C)C(=O)Nc1ccc(C)cc1 (stereo not given)	0.3	0.69	6.7	0	-4.5	2%	3.7
CCOP(=O)(OCC)C(NC(=O)c1ccc(OC)c(OC)c1)c1ccccc1 (stereo not given)	0.3	0.71	0.8	-5	-0.3	7%	-0.4
O=C(O)C1CC=CCC1C(=O)NCCc1cccc(Cl)c1 (stereo not given)	-0.7	0.7	-3.9	5	-1.9	6%	0.6
CCOc1ccc(NC(=O)C(=S)NC2CCCCC2)cc1	1.0	0.72	-0.8	3	-1.9	·	-1.3
COCC(C)NC(=O)c1cc(S(=O)(=O)N2CCCCC2)ccc1N1CCOCC1 (stereo not given)	0.0	0.68	-1.2	-1	1.2	·	-1.1
CC1CCc2sc(C(=O)N/N=C/c3ccc(O)cc3)cc2C1 (stereo not given)	2.0	·	-0.1	15	-5.8	-3%	·
Cc1ccc(F)c(C2C3C=CCC(c4cccc(-c5ccc(N(C)C)cc5)c4)C3C(=O)N2Cc2ccccc2)c1 (stereo not given)	-0.9	0.75	-0.7	9	1.7	·	1.7
Cn1c(=O)c(=O)n(C)c2cc(S(=O)(=O)N3CCC(Cc4ccccc4)CC3)ccc21	1.0	0.69	1.9	-1	13*	-2%	-15
C=CCN(Cc1nc(-c2ccccc2)no1)C(=O)c1ccc2c(c1)OCO2	1.0	0.69	-2.7	-6	4.9	·	-1.4

Source: PubChem BioAssay (several laboratories)
